From PubChem
T. gondii HeLa – T. gondii ME49Luc in HeLa cells, luciferase assay, 72 h, no IFN-y (AID 1259421); 9.6% of 6,400 active; T. gondii ME49Luc in HeLa, luciferase, 72 h, no IFN-y; hits give low values; reference of the scale and settings of repeat entries not given here; many of its hits are not listed in these tables; activity change, negative = inhibition, %;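 active = activity change below -70%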;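 also: about 20 µM from a 10 mM stock diluted 500-fold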
* hit, by the source's call; & = joins results of further samples; ! = not active in a repeat. Not all compounds are listed. The share of hits here may be higher or lower than overall.

SMILES | T. gondii HeLa
C/C(=C\c1csc(C)n1)[C@@H]1C[C@@H]2O[C@]2(C)CCC[C@H](C)[C@H](O)[C@@H](C)C(=O)C(C)(C)[C@@H](O)CC(=O)N1 | -95*
CCCC(=O)OCOC(=O)C1=C(C)NC(C)=C(C(=O)OC)C1c1cccc(Cl)c1Cl (centres undefined) | 10
CCS(=O)(=O)N(C)[C@H]1c2cc(C#N)ccc2OC(C)(C)[C@@H]1O | 2&5
COc1ccc2c(c1)O[C@H]1c3ccc(OC)cc3OC[C@@H]21 | 27
C=CC(C)(C)c1cc(/C=C/C(=O)c2ccc(O)cc2)c(OC)cc1O | 187
CC1(C)O[C@@H]2CC3C4CCC5=CC(=O)C=C[C@]5(C)C4[C@@H](O)C[C@]3(C)[C@]2(C(=O)CO)O1 (some centres undefined) | 1
CCC(C(N)=O)c1ccccc1 (centres undefined) | -5
CN(CCOc1ccc(-c2ccc3c(c2)OCO3)cc1C(C)(C)C)CC(=O)O | 6
CC(C)OC(=O)c1cn(Cc2c(F)cccc2F)c2sc(-c3ccc(NC(=O)C(C)C)cc3)c(CN(C)Cc3ccccc3)c2c1=O | -81*
Cn1cnc2c(F)c(Nc3ccc(Br)cc3Cl)c(C(=O)NOCCO)cc21 | -1
CCOC(=O)C1CN(Cc2ccccc2)C(=O)C1=O (centres undefined) | 2&17
Cc1cccc(C(=O)NCN2CCN(c3ccccc3C#N)CC2)c1 | -9
O=C(O)c1cc(=O)c2ccc(Cl)cc2[nH]1 | -3&9
CCOC(=O)CC(=O)N1CCSC1COc1ccccc1OC (centres undefined) | 6&18
O=C1C[C@@H](c2ccccc2)Oc2cc(O)cc(O)c21 | -2&16
CC(C)[C@@H](N)C(=O)O | 5
CC(=O)Nc1ccc(C(=O)Nc2ccccc2N)cc1 | 46&31
Cc1ccc(C(=O)Nc2cccc(C(F)(F)F)c2)cc1Nc1nc(-c2cccnc2)nc2c1cnn2C | -49
COC(=O)c1cc(Cl)ccc1OC | 1
C[C@H](CCC(=O)O)[C@H]1CC[C@H]2[C@@H]3C[C@H](O)[C@@H]4C[C@H](O)CC[C@]4(C)[C@H]3CC[C@]12C | 9

Reformatted: 3 of the compounds above
C=CC(C)(C)c1cc(/C=C/C(=O)c2ccc(O)cc2)c(OC)cc1O
  T. gondii HeLa: 187
CC1(C)O[C@@H]2CC3C4CCC5=CC(=O)C=C[C@]5(C)C4[C@@H](O)C[C@]3(C)[C@]2(C(=O)CO)O1 (some centres undefined)
  T. gondii HeLa: 1
CCC(C(N)=O)c1ccccc1 (centres undefined)
  T. gondii HeLa: -5

New compounds follow.
SMILES | T. gondii HeLa
CN[C@H](CC(C)C)C(=O)N[C@H]1C(=O)N[C@@H](CC(N)=O)C(=O)N[C@H]2C(=O)N[C@H]3C(=O)N[C@H](C(=O)N[C@H](C(=O)O)c4cc(O)cc(O)c4-c4cc3ccc4O)[C@H](O)c3ccc(c(Cl)c3)Oc3cc2cc(c3O[C@@H]2O[C@H](CO)[C@@H](O)[C@H](O)[C@H]2O[C@H]2C[C@](C)(N)[C@H](O)[C@H](C)O2)Oc2ccc(cc2Cl)[C@H]1O | 18
Cc1c(Nc2ncccc2C(=O)O)cccc1C(F)(F)F | 28&29
OCc1cc2c(cn1)[nH]c1ccccc12 | 13
NCCCCCc1cnc[nH]1 | 11
COc1ccc(CNc2nc(N3CCC[C@H]3CO)ncc2C(=O)NCc2ncccn2)cc1Cl | -7
CC(C)c1ccc(C(=O)N=C(N)N)cc1S(C)(=O)=O | 16
O/N=C/c1cc[n+](COC[n+]2ccc(/C=N/O)cc2)cc1 | 9
c1ccc(C2CN3CCSC3=N2)cc1 (centres undefined) | 12&-1
Nc1nc2c(ncn2CCC(CO)CO)c(=O)[nH]1 | 11
Nc1cc(C(F)(F)F)c(-c2cc(N3CCOCC3)nc(N3CCOCC3)n2)cn1 | -70*
Cc1nc2ccc(NC(=O)Nc3ccnc4cccnc34)cc2o1 | 24&33
CC(C)(C)NC(=O)N[C@H](C(=O)N1C[C@H]2[C@@H]([C@H]1C(=O)NC(CC1CCC1)C(=O)C(N)=O)C2(C)C)C(C)(C)C (some centres undefined) | 1
CCc1c(C)[nH]c2c1C(=O)C(CN1CCOCC1)CC2 (centres undefined) | 1
COC(=O)C[C@H]1C(C)(C)C(=O)[C@@H]2CC3C4=CC(=O)O[C@@H](c5ccoc5)[C@]4(C)CCC3[C@@]1(C)C2=O (some centres undefined) | 6
C=CC(=O)Nc1cccc(Nc2nc(Nc3ccc(NC4CN(CCF)C4)cc3OC)ncc2C(F)(F)F)c1 | -9
COc1c(O)cc2oc3cc(O)c(CC=C(C)C)c(O)c3c(=O)c2c1CC=C(C)C | -81*
N#CC[C@H](C1CCCC1)n1cc(-c2ncnc3[nH]ccc23)cn1 | 18&28
CCNC(=O)C1OC(n2cnc3c(N)nc(NCCc4ccc(CCC(=O)O)cc4)nc32)C(O)C1O (centres undefined) | 1
CC(=O)c1c(O)cc(O)cc1O | 7
CCN(CCO)CCCOc1ccc2c(Nc3cc(CC(=O)Nc4cccc(F)c4)[nH]n3)ncnc2c1 | 19

Some of the entries so far, as labelled records.
C=CC(=O)Nc1cccc(Nc2nc(Nc3ccc(NC4CN(CCF)C4)cc3OC)ncc2C(F)(F)F)c1
  T. gondii HeLa: -9
COc1c(O)cc2oc3cc(O)c(CC=C(C)C)c(O)c3c(=O)c2c1CC=C(C)C
  T. gondii HeLa: -81*
N#CC[C@H](C1CCCC1)n1cc(-c2ncnc3[nH]ccc23)cn1
  T. gondii HeLa: 18&28
CCNC(=O)C1OC(n2cnc3c(N)nc(NCCc4ccc(CCC(=O)O)cc4)nc32)C(O)C1O (centres undefined)
  T. gondii HeLa: 1

(further entries)
SMILES | T. gondii HeLa
CCCCCCCC/C=C/C(=O)O | 1
COc1cc2c(N3CCN(C(=O)Nc4ccc(OC(C)C)cc4)CC3)ncnc2cc1OCCCN1CCCCC1 | 11
CNC(=O)c1cc2c(cn1)[nH]c1ccccc12 | 39
S=C(NCc1ccc2c(c1)OCO2)N1CCN(c2ncnc3c2oc2ccccc23)CC1 | -35
COc1ccc(-c2oc3cc(OC)c(OC)c(OC)c3c(=O)c2OC)cc1 | -4
CCC[C@@H]1C[C@@H](C(=O)N[C@@H]([C@H]2O[C@H](SC)[C@H](O)[C@@H](O)[C@@H]2O)[C@@H](C)O)N(C)C1 | 0
CN1CC(=O)N=C1N | 19
COC(=O)C[C@H]1C(C)(C)C(=O)[C@@H]2CC3=C4CC(=O)O[C@@H](c5ccoc5)[C@]4(C)CCC3[C@@]1(C)C2=O (some centres undefined) | -16
COc1cc(C)c2c(c1C=O)Oc1c(c(C)c(O)c3c1C(O)OC3=O)OC2=O (centres undefined) | -5
O=C(O)CCCNC(=O)c1cccnc1 | 24
N[C@@H](C(=O)O)c1ccc(O)c(C(=O)O)c1 | -2
COc1ccc(CN2C(=O)C(=O)c3cc(OC(F)(F)F)ccc32)cc1 | -32
Cc1cccc(Nc2nc(-c3ccncc3)cs2)c1 | 107
O=C(Nc1ccc(S(=O)(=O)Nc2ccccc2Cl)c(Cl)c1)c1ccccn1 | 25
O=C(NO)C1(CS(=O)(=O)c2ccc(Oc3ccc(Cl)cc3)cc2)CCOCC1 | -5
O=C(O)Cc1ccc(-c2ccccc2)cc1 | 17
CCCCCC(O)CCCC(=O)O (centres undefined) | 12
CC(C)Oc1cccc(-n2c(CCc3c[nH]c4ccc(Br)cc34)nc3ccccc3c2=O)c1 | -5&16
COc1ccc2c(c1)N(C[C@H](C)CN(C)C)c1ccccc1S2 | -40
CC[N+](C)(CC)CC(=O)Nc1c(C)cccc1C | -1&14
COc1ccc(C(=O)c2ccc(C)cc2)c(O)c1 | 99&154
CC[C@@]1(O)C(=O)OCc2c1cc1n(c2=O)Cc2cc3c([N+](=O)[O-])cccc3nc2-1 | -86*
O=C(CCCCC(=O)Nc1c(I)cc(I)c(C(=O)O)c1I)Nc1c(I)cc(I)c(C(=O)O)c1I | 2
O=C(O)[C@H](O)[C@H](O)[C@@H](O)[C@H](O)[C@H](O)CO | -2&15
CCCCCCCCNC(C)C(O)c1ccc(SC(C)C)cc1 (centres undefined) | -78*!
Cc1noc(-c2ccc(CSCCC(=O)O)cc2)c1NC(=O)OC(C)c1ccccc1Cl (centres undefined) | 13
CC(C)C[C@H](NC(=O)[C@@H](Cc1c[nH]c2ccccc12)NC(=O)[C@H](Cc1ccc(O)cc1)NC(=O)[C@H](CO)NC(=O)[C@H](Cc1c[nH]c2ccccc12)NC(=O)[C@H](Cc1cnc[nH]1)NC(=O)[C@@H]1CCC(=O)N1)C(=O)N[C@@H](CCCN=C(N)N)C(=O)N1CCC[C@H]1C(=O)NCC(N)=O | -22
Clc1ccc2c(c1)C(N1CCNCC1)=Nc1ccccc1O2 | 18&12
CCCCCCn1c(=O)c2c(ncn2C)n(C)c1=O | 11
COc1ccc(NS(=O)(=O)c2ccc(I)cc2)cc1N1CCN(C)CC1 | -5&1
Cc1cnc(C(=O)O)c[n+]1[O-] | 11
CC(C)NC[C@@H](O)c1ccc(NS(C)(=O)=O)cc1 | 2
CCCCc1nc2ccn(CC(=O)N(C)C)c(=O)c2n1Cc1ccc(-c2ccccc2-c2nn[nH]n2)cc1 | -1&19
O=c1[nH]c2cc(Cl)ccc2c(O)c1-c1cccc(Oc2ccccc2)c1 | 1&1
OCC(CO)N[C@H]1C[C@](O)(CO)[C@@H](O)[C@H](O)[C@H]1O | -1&13
NC(=O)N1CCC(CC(=O)N2CCC([C@H]3c4ncc(Br)cc4CCc4cc(Cl)cc(Br)c43)CC2)CC1 | -15
Fc1ccc(C(c2ccccc2)(c2ccccc2F)n2ccnc2)cc1 (centres undefined) | -45
CCCCCCN(CCCCCC)C(=O)Cc1c(-c2ccc(F)cc2)[nH]c2ccccc12 | 31
CCc1ccc(C(=O)C(C)CN2CCCCC2)cc1 (centres undefined) | 14&9
CC(C)OC(=O)CNC(=O)[C@H](CS)NC(=O)CC[C@H](N)C(=O)O | 13
CC(=O)NC1C(O)OC(COS(=O)(=O)O)C(OC2OC(C(=O)O)C(OC3OC(CO)C(OC4OC(C(=O)O)C(O)C(O)C4OS(=O)(=O)O)C(OS(=O)(=O)O)C3NS(=O)(=O)O)C(O)C2OS(=O)(=O)O)C1O (centres undefined) | 10
CCC(C)N(C)C(=O)c1cc2ccccc2c(-c2ccccc2Cl)n1 (centres undefined) | 3&15
Cc1c(OCC(F)(F)F)ccnc1C[S@@](=O)c1nc2ccccc2[nH]1 | 84
CCCCCCCCCCC[C@@H](C[C@@H]1OC(=O)[C@H]1CCCCCC)OC(=O)[C@H](CC(C)C)NC=O | -39
CC(C)c1ccc2c(c1)CCC1C(C)(C(N)=O)CCCC21C (centres undefined) | 40
N[C@H]1CCN(O)C1=O | -1
COc1cccc(N(C)C(=S)Oc2ccc3c(c2)CCCC3)n1 | 44
COC(=O)[C@H](CC(C)C)NC(=O)[C@@H](N)CC(C)C | 5
COc1ccc(CCNCC(O)COc2cccc(C)c2)cc1OC (centres undefined) | 10
CC(=O)NC1[C@@H](O)OC(CO)[C@@H](O)[C@H]1O (some centres undefined) | 16
CO[C@H]1C(=O)[C@@]2(C)[C@H]([C@@H](OC(=O)c3ccccc3)[C@@]3(O)C[C@H](OC(=O)[C@H](O)[C@@H](NC(=O)OC(C)(C)C)c4ccccc4)C(C)=C1C3(C)C)[C@]1(OC(C)=O)CO[C@@H]1C[C@H]2OC | -83*
COc1c(-c2coc3cc4c(cc3c2=O)CC(OC(C)=O)C(C)(C)O4)ccc2c1C=CC(C)(C)O2 (centres undefined) | -72*
CN(C)Cc1ccc(S(=O)(=O)n2ccc(/C=C/C(=O)NO)c2)cc1 | -85*
CC(C(=O)O)c1ccc(CC2CCCC2=O)cc1 (centres undefined) | 16&7
COc1cc2c(cc1OC(C)C)[C@H](c1ccc(Cl)cc1)N(c1ccc(N(C)CC3CCC(N4CCN(C)C(=O)C4)CC3)cc1)C(=O)C2 (some centres undefined) | -56
O=C(NCCCCN1CCOCC1)c1cc2ccccc2o1 | 1
Nc1nc2c(sc(=O)n2[C@@H]2O[C@H](CO)[C@@H](O)[C@H]2O)c(=O)[nH]1 | -8
CN1CCN(c2nc(C3=C(c4c[nH]c5ccccc45)C(=O)NC3=O)c3ccccc3n2)CC1 | -10
CC(=O)OCC(=O)[C@@]1(O)CCC2C3CCC4=CC(=O)CC[C@]4(C)C3=CC[C@@]21C (some centres undefined) | -1
CCOc1ccccc1O[C@H](c1ccccc1)[C@H]1CNCCO1 (racemic) | 8

(list continues)
SMILES | T. gondii HeLa
CCOC(=O)C1=C[C@@H](OC(CC)CC)[C@H](NC(C)=O)[C@@H](N)C1 | 20
Cc1ccc2c(=O)c3ccccc3n(CCCN)c2c1C | -77*
Cc1cc(OCC(=O)O)cc(C)c1Cc1ccc(O)c(C(C)C)c1 | 1
CCCCCCOC(=O)/N=C(/N)c1ccc(NCc2nc3cc(C(=O)N(CCC(=O)OCC)c4ccccn4)ccc3n2C)cc1 | 13
COC(=O)Nc1ccc(-c2nc(N3CCOCC3)c3cnn(C4CCN(C(=O)OC)CC4)c3n2)cc1 | 21
O=C(O)c1cccc(-c2noc(-c3ccccc3F)n2)c1 | -23
C[N+]1(CCCCC[N+]2(C)CCCC2)CCCC1 | 1
COc1ccccc1N1CCN(CCCCN2C(=O)CCC2=O)CC1 | 6&-10
COC(=O)C1=C(C)NC(C)=C(C(=O)OCC(C)C)C1c1ccccc1[N+](=O)[O-] (centres undefined) | 6
C[C@H]1[C@@H](O)O[C@@H]2O[C@@]3(C)CC[C@H]4[C@H](C)CC[C@@H]1[C@@]24OO3 | -94*
